Screening results as filed in PubChem.
VACV Venus inh – qHTS for Stage-Specific Inhibitors of Vaccinia Orthopoxvirus: Venus Reporter Primary qHTS; Vaccinia virus Venus reporter expression, fluorescence; Potency, µM (series often up to 36.5 µM), for inactives: top-dose activity change, negative = inhibition, actives largely listed as inhibitors; 330,000 compounds, 0.46% hits; active means well fitted inhibition curve with a large enough effect; inconclusive means small, poorly fitted or top-dose-only effect; inactive means no such curve, though single readings can be large or run the other way; tested in A549 cells; note: nearly all actives have a fitted effect of over 30% in size; inactives centre near -10
VACV mCherry inh – qHTS for Stage-Specific Inhibitors of Vaccinia Orthopoxvirus: mCherry Reporter Primary qHTS; Vaccinia virus mCherry reporter infection, fluorescence; about a quarter of the inactives have no number; Potency, µM (titrated, usually from 36.5 µM), inactives show top-dose activity change, negative = inhibition, actives largely listed as inhibitors; 310,000 compounds, 0.63% hits; AID 720579, 2013; active = well fitted inhibition curve with a large enough effect; inconclusive = small, poorly fitted or top-dose-only effect; inactive = no such curve, though single readings can be large or run the other way; tested in A549 cells; note: nearly all actives have a fitted effect of over 35% in size; inactives centre near -10
Numbers without * were called inactive; i = inactive; ? = inconclusive; / = no result given; [ ] = remark or other dose. % is set by controls: 0 for no effect and ±100 for the full control effect; potency is the fitted concentration of half-maximal effect.

Order of results: VACV mCherry inh | VACV Venus inh
1) CCOc1ccc(S(=O)(=O)N2CCN(C(=O)c3oc4ccc(OC)cc4c3C)CC2)cc1
    -21% | -11%
2) COc1cccc(CNC(=O)c2cccc(S(=O)(=O)N3CCN(Cc4ccccc4)CC3)c2)c1
    -3% | -8%
3) CCCCC(=O)Nc1ccc(NC(=O)c2cccnc2)cn1
    -10% | -11%
4) Cc1c(C(=O)NC2CCN(Cc3ccccc3)C2)oc2ccc(Br)cc12 (centres undefined)
    -11% | -5%
5) N#C/C(=C\c1cc2ccccc2nc1N1CCOCC1)C(=O)Nc1ccc(N2CCOCC2)cc1
    -15% | -10%
6) Cc1c(C#N)c(=O)c(-[n+]2ccccc2)c([S-])n1-c1ccc(Cl)cc1
    -9% | 3%
7) Oc1c(Cl)cc(Cl)cc1CNc1nccs1
    i | -14%
8) COc1cccc(NC(=O)C2CCCN2S(=O)(=O)c2ccc3c(c2)n(C)c(=O)c(=O)n3C)c1 (centres undefined)
    -13% | -8%
9) CC(=O)C1=CCC(c2ccccc2)N(S(=O)(=O)c2cccc(C)c2)C1 (centres undefined)
    40%[activator] | 2%
10) O=C(NCc1ccc(F)cc1)c1cccnc1
    i | -15%
11) COc1ccc([N+](=O)[O-])cc1NC(=O)C(C)OC(=O)c1ccccc1C(=O)c1ccc(Cl)cc1 (centres undefined)
    -14% | -3%
12) C=CCOc1cccc(C2/C(=C(/O)c3ccc4c(c3)CC(C)O4)C(=O)C(=O)N2CCN2CCOCC2)c1 (centres undefined)
    0% | -16%
13) CCC1(C(=O)O)NC(c2cc(OC)ccc2O)C2C(=O)N(Cc3ccccc3)C(=O)C21 (centres undefined)
    1% | -14%
14) O=C(NCCc1ccccc1)C(=O)NCC1OCCN1S(=O)(=O)c1cc(F)ccc1F (centres undefined)
    -13% | -22%
15) COc1ccc(N2C(=O)CC(n3c(CCCCO)nc4ccccc43)C2=O)cc1 (centres undefined)
    / | -11%
16) Cc1ccc(NS(=O)(=O)c2ccc(OCC(=O)NCc3ccncc3)cc2)cc1
    -8% | -8%
17) Cc1cc(C)n(CCCNC(=O)c2ccc3c(c2)NC(=O)CS3)n1
    -5% | -9%
18) CCc1nn(CCCC(=O)NCc2ccc(OC)c(OC)c2)c(=O)c2cc3occc3n12
    -12% | -9%
19) CC(NC(=O)Cc1cccs1)c1ccccc1 (centres undefined)
    i | -3%
20) COc1cc(CC(=O)Nc2ccccc2N2CCOCC2)cc(OC)c1OC
    -7% | -4%

Records 7–20, quoted:
Order of results: VACV mCherry inh | VACV Venus inh
7) Oc1c(Cl)cc(Cl)cc1CNc1nccs1
    i | -14%
8) COc1cccc(NC(=O)C2CCCN2S(=O)(=O)c2ccc3c(c2)n(C)c(=O)c(=O)n3C)c1 (centres undefined)
    -13% | -8%
9) CC(=O)C1=CCC(c2ccccc2)N(S(=O)(=O)c2cccc(C)c2)C1 (centres undefined)
    40%[activator] | 2%
10) O=C(NCc1ccc(F)cc1)c1cccnc1
    i | -15%
11) COc1ccc([N+](=O)[O-])cc1NC(=O)C(C)OC(=O)c1ccccc1C(=O)c1ccc(Cl)cc1 (centres undefined)
    -14% | -3%
12) C=CCOc1cccc(C2/C(=C(/O)c3ccc4c(c3)CC(C)O4)C(=O)C(=O)N2CCN2CCOCC2)c1 (centres undefined)
    0% | -16%
13) CCC1(C(=O)O)NC(c2cc(OC)ccc2O)C2C(=O)N(Cc3ccccc3)C(=O)C21 (centres undefined)
    1% | -14%
14) O=C(NCCc1ccccc1)C(=O)NCC1OCCN1S(=O)(=O)c1cc(F)ccc1F (centres undefined)
    -13% | -22%
15) COc1ccc(N2C(=O)CC(n3c(CCCCO)nc4ccccc43)C2=O)cc1 (centres undefined)
    / | -11%
16) Cc1ccc(NS(=O)(=O)c2ccc(OCC(=O)NCc3ccncc3)cc2)cc1
    -8% | -8%
17) Cc1cc(C)n(CCCNC(=O)c2ccc3c(c2)NC(=O)CS3)n1
    -5% | -9%
18) CCc1nn(CCCC(=O)NCc2ccc(OC)c(OC)c2)c(=O)c2cc3occc3n12
    -12% | -9%
19) CC(NC(=O)Cc1cccs1)c1ccccc1 (centres undefined)
    i | -3%
20) COc1cc(CC(=O)Nc2ccccc2N2CCOCC2)cc(OC)c1OC
    -7% | -4%

(further entries)
Order of results: VACV mCherry inh | VACV Venus inh
21) Cc1cccc(-c2oc3ccccc3c2-c2ccc3c(c2)OCO3)c1
    i | -1%
22) Cc1cc(C)cc(N(CCC#N)C(=O)COC(=O)C2=COCCO2)c1
    -24% | -17%
23) Cc1ccc(NC(=O)C(CC(C)C)NC(=O)C2CCC(C)CC2)nc1 (centres undefined)
    -20% | -20%
24) O=C(CCn1cnc2onc(-c3ccc(F)cc3)c2c1=O)N1CCN(c2cccc(Cl)c2)CC1
    -16% | -9%
25) Cc1ccc(CNC(=O)CN(c2cccc([N+](=O)[O-])c2)S(C)(=O)=O)cc1
    -16% | -14%
26) CC1(c2ccccc2)NC(=O)N(CC#N)C1=O (centres undefined)
    -14% | -9%
27) CC1(C(=O)NS(=O)(=O)c2ccccc2)CCN1C(=O)Cc1ccc(-c2ccccc2)cc1 (centres undefined)
    -4% | 5%
28) O=[N+]([O-])c1ccccc1S(=O)(=O)Nc1ccc(-c2ccc3nncn3n2)cc1
    ? | ?
29) O=C1NCCCN1C1OC(CO)C(O)C1O (centres undefined)
    -9% | -1%
30) COc1ccc(NC(=O)CCCOc2ccc(Cl)c(C)c2)cc1S(=O)(=O)N1CCOCC1
    -4% | -19%
31) CC(C)c1cccc(C(C)C)c1NC(=O)COC(=O)C1=COCCO1
    -2% | -2%
32) CS/C(=C\[N+](=O)[O-])Nc1ccc(C)cc1
    i | -10%
33) COc1ccc(NC(=O)Cn2c(=O)n(Cc3ccco3)c(=O)c3sc4ccccc4c32)c(OC)c1
    -22% | -25%
34) O=C(Nc1nc(N2C(=O)c3ccccc3C2=O)n(-c2ccccc2)n1)c1ccccc1
    -9% | -2%
35) Cc1c(NC(=O)C(C)OC(=O)CCOc2ccccc2)c(=O)n(-c2ccccc2)n1C (centres undefined)
    0% | -13%
36) O=C(Nc1ccc(Cl)cc1)c1cccc(NC2=NC3CS(=O)(=O)CC3S2)c1 (centres undefined)
    i | -21%
37) CCOC(=O)c1ccc(NS(=O)(=O)c2cc(-c3nnnn3C(C)C)ccc2OC)cc1
    / | 3%
38) CCC(=O)N1C(C(=O)NCc2ccc(OC)cc2)CSC1c1ccc(OC)cc1 (centres undefined)
    i | -7%
39) CCOc1ccc(-c2nnn(CC(=O)N3CCN(c4ccc(OC)cc4)CC3)n2)cc1OCC
    -18% | -9%
40) O=C(CCc1nnc(-c2ccc(-c3ccccc3)cc2)o1)N1CCCCC1
    i | -14%

Further records follow.
Order of results: VACV mCherry inh | VACV Venus inh
41) OCC[C@@H]1C[C@H](O)[C@@H](O)[C@@]2(Cc3ccccc3CO2)O1
    -14% | -9%
42) S=c1[nH]nc2sc3ccccc3n12
    i | 4%
43) CCOC(=O)c1ccc(NC(=O)CCn2c(=O)c3cccn3c3ccccc32)cc1
    -5% | -3%
44) C=CCn1c(COc2cccc3cccnc23)nnc1SCC(=O)O
    / | -5%
45) Cc1cc(C)nc(Nc2nc3ccccc3[nH]2)n1
    i | -13%
46) S=c1[nH]nc(Cc2ccccc2)n1-c1cccc2ccccc12
    -8% | -6%
47) O=Cc1ccc(C(=O)OCC(=O)Nc2ccc(F)cc2F)cc1
    i | 2%
48) CCOC(=O)C1=C(C)NC(=O)NC1c1ccc(Br)s1 (centres undefined)
    -5% | -17%
49) COC(=O)C1(C)NC(c2cccc(C)c2)C2C(=O)N(c3ccccc3)C(=O)C21 (centres undefined)
    i | -8%
50) CC(=O)c1cc(-c2ccc(F)cc2)n(CC(=O)NCc2ccc(C)cc2)c1C
    -6% | -6%
51) COc1ccc(C(=O)/C=C/c2ccccc2OC)c(OC(=O)c2ccc([N+](=O)[O-])cc2)c1
    ? | -20%
52) O=C(CN1C(=O)C(c2ccc(F)cc2)=NC12CCCC2)Nc1ccc(F)cc1
    ? | -21%
53) COC(=O)C(O)(c1ccc(NC(=O)c2cccs2)c(C)c1)C(F)(F)F (centres undefined)
    -2% | -13%
54) O=C(N/N=C/c1cccc(OC(=O)c2cccc(Br)c2)c1)c1ccncc1
    -24% | -5%
55) O=C(NC1CCN(Cc2ccccc2)CC1)C1CCN(S(=O)(=O)c2ccccc2)CC1
    -28% | -11%
56) COc1ccc(Cl)cc1Cn1c(C)c(C(=O)NCc2ccccc2C(F)(F)F)sc1=O
    i | -3%
57) Cc1ccccc1CS(=O)(=O)Cc1ccc(C(=O)NCCCN2CCCC2=O)o1
    i | -9%
58) O=C(NC1CCCC1)c1cc(-c2ccc(Cl)cc2)on1
    -1% | -6%
59) Cc1cc(C)c(C#N)c(SCC(=O)Nc2nonc2N)n1
    -7% | -5%
60) CCc1ccc(NC(=O)c2ccc3[nH]c(C)c(C)c3c2)cc1
    -20% | 0%

(cont.)
Order of results: VACV mCherry inh | VACV Venus inh
61) CC(C)(C)CCN1CCC(CN2CCNC2=S)CC1
    i | -15%
62) COc1ccc(CCNC(=O)c2cc3n(n2)CCCN(Cc2ccc(C)cc2)C3=O)cc1OC
    -29% | -8%
63) O=C(NCc1ccccc1)c1cc(C2COCCN2C(=O)CCc2ccccc2)on1 (centres undefined)
    51%[activator] | 16%
64) Cc1cccc(Cn2nnc3c(=O)[nH]c(C4CCN(C(=O)c5ccc(F)cc5)CC4)nc32)c1
    -10% | -5%
65) c1ccc(N2CC3COc4ccccc4C3=N2)cc1 (centres undefined)
    i | -9%
66) Cc1ccc(C(=O)Nc2cccnc2Cl)cc1Cl
    -18% | -4%
67) Cc1cc(C)cc(OCC(O)CN2C(=O)NC(C)(C)C2=O)c1 (centres undefined)
    32%[activator] | -3%
68) O=C1CC(N2CCN(C/C=C/c3ccccc3)CC2)C(=O)N1CCc1ccccc1 (centres undefined)
    -5% | -28%
69) CCCNC(=O)CSc1nnc(-c2ccccc2Br)n1-c1cccc(C(F)(F)F)c1
    -16% | -16%
70) CC(=O)N1CCN(c2ccc([N+](=O)[O-])cc2)CC1
    -12% | 2%
71) Cc1ccc2c(CN3CCN(S(=O)(=O)c4ccc(Cl)cc4)CC3)cc(=O)oc2c1C
    i | -7%
72) COC(=O)C1(C)NC(c2ccc(OC)cc2)C2C(=O)N(c3ccccc3)C(=O)C21 (centres undefined)
    i | -4%
73) c1ccc(Nc2nc3ccccc3n3cnnc23)cc1
    9% | -4%
74) COc1ccc(S(=O)(=O)N2CCC(C(=O)Oc3cccc(C)c3)CC2)cc1OC
    i | -5%
75) CC[C@@H](C)[C@@H](C(=O)Nc1ccc(C)cc1)N1Cc2ccccc2C1=O
    i | -8%
76) CCCNC(=O)C1CC(c2ccc(C(F)(F)F)cc2)=NO1 (centres undefined)
    i | -2%
77) Cc1cc(NC(=O)CSc2ncnc3ccccc23)no1
    ? | -12%
78) NC(CCP(=O)(O)O)C(=O)O (centres undefined)
    -13% | -11%
79) CN1CCN(c2ccc(C(CC(N)=O)NC(=O)Cc3cccc4ccccc34)cc2[N+](=O)[O-])CC1 (centres undefined)
    -20% | -8%
80) Cc1ccc(N(C(=O)Cc2cccs2)C(C(=O)NCC2CCCO2)c2ccncc2)cc1 (centres undefined)
    -13% | -8%

Later entries
Order of results: VACV mCherry inh | VACV Venus inh
81) O=C1c2ccccc2[C@@H]2C[C@@H](O)[C@H](Nc3cccc4ccccc34)CCN12
    i | -2%
82) O=C(NC1CCCCC1)c1cccc(S(=O)(=O)N2CCCCC2)c1
    -10% | -1%
83) CCOC(=O)N1CCN(C2CC(=O)N(c3ccccc3)C2=O)CC1 (centres undefined)
    i | -4%
84) c1csc(CNc2nc(NCC3CCCCC3)c3sccc3n2)c1
    -1% | -16%
85) CC1CCCCC1NC(=O)COC(=O)c1ccc2c(c1)NC(=O)CS2 (centres undefined)
    -8% | -1%
86) CCC(C)N1CCC2(CC1)N=c1c(c3c4c5c(C)c(O)c3c(O)c1=NC(=O)C(C)=CC=C[C@H](C)[C@H](O)[C@@H](C)[C@@H](O)[C@@H](C)[C@H](OC(C)=O)[C@H](C)[C@@H](OC)C=CO[C@@](C)(O5)C4=O)N2 (some centres undefined)
    ? | ?
87) O=C(NN1CCOCC1)c1cc(-c2ccncc2)nc2ccccc12
    i | -10%
88) COc1ccc(CNC(=O)c2cc3cc4cc(OC)ccc4nc3o2)cc1
    i | -4%
89) CC(C)CCNC(=O)c1cc(-c2ccc(Br)s2)nc2ccccc12
    i | -1%
90) O=C(CN1CC(=O)Nc2ccccc21)Nc1ccc(F)c(F)c1
    -12% | -7%
91) COCC(=O)N(C)[C@H]1C[C@H]2c3[nH]c4ccccc4c3CCN2C(=O)[C@H]1[C@H](C)O
    i | -4%
92) CCCOc1ccc(-c2nn(-c3ccccc3)cc2C2NC(=O)NC(C)=C2C(=O)OC(C)C)cc1 (centres undefined)
    i | -17%
93) Cc1cccc(C(=O)Nc2ccc(C(=O)N/N=C/c3ccc4c(c3)OCO4)cc2)c1
    -24% | -7%
94) CC(=O)N1CCCc2cc(S(=O)(=O)N(CC(C)C)CC(C)C)ccc21
    -23% | -20%
95) O=c1c(Br)c(Br)cnn1-c1ccccc1
    ? | ?
96) O=C(c1ccc(OC2CCN(Cc3ccccn3)CC2)cc1)N1CCCCO1
    -21% | -7%
97) Cc1ccc(NC(=O)c2ccc3c(c2)C(=O)N(CC2CCCO2)C3=O)cc1C (centres undefined)
    -8% | -1%
98) Cc1cc(OCC(=O)Nc2cccc(-c3nc4ccccc4o3)c2C)cc(C)c1Cl
    -25% | -9%
99) N#Cc1c(NC(=O)CCCC(=O)O)sc2c1CCCCC2
    -9% | 3%
100) CCCCCCSc1cccc(-c2nc3ccc(C)cn3c2NC2CCCCC2)c1
    -7% | -12%
